MLL AF4-AF9 inh: MLL-AF4/AF9 protein interaction inhibition. P42568. AlphaScreen, biotin-AF4 peptide binding to FLAG-AF9. inhibition, % at 10 µM. hit rate 0.47% among 350,000. AID 651704;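 active = every replicate reaching a set inhibition limit, whatever the replicate mean, cut at about 25% in these data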;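 note: 0% = plate neutral control median and 100% = total signal loss; the record names both 10 and 1 µM as test concentration; the first replicate is given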
Target sequence (P42568 whole entry, looked up): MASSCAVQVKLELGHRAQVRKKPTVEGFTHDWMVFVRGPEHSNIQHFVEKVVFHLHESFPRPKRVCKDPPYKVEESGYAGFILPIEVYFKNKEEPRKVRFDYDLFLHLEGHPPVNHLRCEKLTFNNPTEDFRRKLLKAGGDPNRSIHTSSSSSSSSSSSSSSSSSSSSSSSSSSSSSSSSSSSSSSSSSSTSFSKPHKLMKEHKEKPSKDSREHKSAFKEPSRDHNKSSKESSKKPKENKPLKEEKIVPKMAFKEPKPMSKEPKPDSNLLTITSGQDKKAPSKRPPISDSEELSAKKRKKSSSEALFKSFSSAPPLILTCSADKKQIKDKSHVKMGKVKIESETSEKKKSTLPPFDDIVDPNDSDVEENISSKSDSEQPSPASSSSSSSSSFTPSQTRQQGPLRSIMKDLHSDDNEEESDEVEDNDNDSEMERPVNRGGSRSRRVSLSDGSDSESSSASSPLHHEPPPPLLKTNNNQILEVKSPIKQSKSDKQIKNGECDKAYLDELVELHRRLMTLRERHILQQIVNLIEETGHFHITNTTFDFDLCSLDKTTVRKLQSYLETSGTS
FGF22 binding: FGF22 (human) thermal shift binding | hit rate 1.5% among 340,000 | calls only at 9.99 µM | Q9HCT0 | AID 651658 | recombinant FGF22 thermal shift, SYPRO orange fluorescence; percent of sucrose octasulfate shift, DMSO zero;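 active = melting point raised past a set limit in the mean and every replicate; three in four hits are not shown here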
Target sequence (Q9HCT0 whole entry, looked up): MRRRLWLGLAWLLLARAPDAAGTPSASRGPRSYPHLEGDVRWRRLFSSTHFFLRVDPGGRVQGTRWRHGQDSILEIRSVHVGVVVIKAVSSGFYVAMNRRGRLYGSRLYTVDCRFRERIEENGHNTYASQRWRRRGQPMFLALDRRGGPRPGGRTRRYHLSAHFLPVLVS
Ecoli rRNA inh: inhibitors of bacterial rRNA selective over humanized ribosomes; E. coli WT GFP vs humanized-ribosome RFP mutants, fluorescence, 24 h; hits give low values; DMSO median 0, no signal -100; GFP signal change (wild-type ribosome), % (test concentration not listed); hit rate 1.6% among 350,000;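 active = significant combined selectivity score with lowered wild-type GFP, culture density cut under 30%, mutant RFP and density less affected; inactive = any of these conditions unmet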; note: one replicate is shown; some compounds called inactive have numbers as strong as hits
Ecoli rRNA inh OD600: second read-out of Ecoli rRNA inh, no call of its own (marks repeat the call); OD600 change, %; measured here: OD600 growth;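 optical density of the mix in the first replicate; 0 = DMSO median and -100 = no signal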
Ecoli rRNA inh RFP: second read-out of Ecoli rRNA inh, no call of its own (marks repeat the call); RFP signal change, %; measured here: RFP humanized mutant strains;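 first replicate; 0 = DMSO median and -100 = no signal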
* hit, by the source's call; i = inactive; . = not tested or not shown; & = joins results of further samples.

compound | MLL AF4-AF9 inh | FGF22 binding | Ecoli rRNA inh | Ecoli rRNA inh OD600 | Ecoli rRNA inh RFP
COc1cccc(S(=O)(=O)Nc2ccc3c(c2)[C@@H]2C[C@@H](CC(=O)NCc4cccc(F)c4)O[C@@H](CO)[C@@H]2O3)c1 | 3.4 | i | -22 | -67 | 16
COc1cccc(-c2ccc([C@@H]3[C@H](CO)N4CCCCN(S(=O)(=O)c5cn(C)cn5)C[C@@H]34)cc2)c1 | -0.3 | i | 5 | -1 | 1.6
O=S(=O)(c1ccccc1F)N1C[C@H]2[C@@H](c3ccccc31)[C@@H](CO)N2Cc1ccc2c(c1)OCO2 | 7.6 | i | -8 | -23 | 9.6
CC(C)OC(=O)N(C)C[C@@H]1OCc2cn(nn2)CCCC(=O)N([C@H](C)CO)C[C@@H]1C | 0.9 | i | 1 | 4 | -2.5
O=C1c2ccccc2C(=O)N1OCCCN1C(=O)c2ccccc2S1(=O)=O | -4.4 | i | -2 | 3 | 2.7
CO[C@@H]1CC[C@@H]2CCN(C)C(=O)C[C@H](c3ccccc3)CN(C)C(=O)c3cccc(C#N)c3OC[C@H]1O2 | 7.2 | i | 1 | 12 | -2.0
COCC(=O)N1[C@H](CO)[C@H]2c3ccccc3N(C)C[C@H]21 | -0.8 | i | 0 | -3 | -2.1
COc1ccc(CN(C)C[C@H]2OCCCC[C@@H](C)Oc3ccc(NS(=O)(=O)c4ccccc4)cc3C(=O)N([C@@H](C)CO)C[C@@H]2C)cc1 | 2.8 | i | 6 | -8 | 4.2
CCCC(=O)Nc1ccc2c(c1)OC[C@@H](C)N(C)C[C@H](C)[C@H](OC)CN(C)C2=O | -1.3 | i | -1 | 4 | -1.5
COCCNC(=O)c1cc(S(=O)(=O)N2CCC3(CC2)OCCO3)ccc1F | -7.3 | i | 8 | 21 | -1.4
C=CCCC1CN(Cc2ccc(OC)cc2)S(=O)(=O)c2c(Oc3cc(C)c(C)c(C)c3)cccc2O1 (stereo not given) | -0.1 | i | 8 | 10 | 2.2
CO[C@@H]1CN(C)C(=O)c2cc(NC(=O)Nc3cccc(Cl)c3)ccc2OC[C@@H](C)NC[C@@H]1C | 4.7 | i | -6 | -9 | 6.7
C[C@H](CO)N1C[C@H](C)[C@H](CN(C)CC2CC2)OCCCC[C@H](C)Oc2ccc(NS(=O)(=O)c3ccccc3)cc2C1=O | 2.8 | i | -5 | -11 | 4.4
N#C[C@@H]1[C@H](c2ccc(C3=CCCC3)cc2)[C@@H](CO)N1C(=O)C1CC1 | -1.9 | i | 1 | 0 | 0.1
C[C@@H]1CN([C@H](C)CO)C(=O)c2cc(NS(=O)(=O)c3ccccc3)ccc2O[C@@H]1CN(C)CC1CCCCC1 | 1.3 | i | 3 | -5 | -2.4
O=C(NNC(=O)c1ccncc1)Nc1ccc(Br)cc1 | -0.6 | i | -6 | 3 | -3.4
O=C(NCc1ccccc1Cl)[C@H]1[C@H](CO)[C@H]2Cn3c(cccc3=O)[C@H]2N1C(=O)C1CCCC1 | -4.8 | i | 1 | -4 | 0.0
COc1cc(F)ccc1-c1cc(C(=O)NCc2ccc(C(F)(F)F)cc2)[nH]n1 | -1.5 | i | -16 | -48 | -0.4
O=C(NC1CCCCC1)N[C@H]1CC[C@@H](CCNS(=O)(=O)c2ccc(F)cc2)O[C@@H]1CO | -0.3 | i | 2 | -2 | -3.4
Cc1ccc(OCC(=O)Nc2ccc(C(=O)Nc3ccccc3C(=O)O)cc2)cc1C | 1.7 | i | 1 | 4 | 0.1

Quoted from the listing for reference:
compound | MLL AF4-AF9 inh | FGF22 binding | Ecoli rRNA inh | Ecoli rRNA inh OD600 | Ecoli rRNA inh RFP
C=CCCC1CN(Cc2ccc(OC)cc2)S(=O)(=O)c2c(Oc3cc(C)c(C)c(C)c3)cccc2O1 (stereo not given) | -0.1 | i | 8 | 10 | 2.2
CO[C@@H]1CN(C)C(=O)c2cc(NC(=O)Nc3cccc(Cl)c3)ccc2OC[C@@H](C)NC[C@@H]1C | 4.7 | i | -6 | -9 | 6.7
C[C@H](CO)N1C[C@H](C)[C@H](CN(C)CC2CC2)OCCCC[C@H](C)Oc2ccc(NS(=O)(=O)c3ccccc3)cc2C1=O | 2.8 | i | -5 | -11 | 4.4
N#C[C@@H]1[C@H](c2ccc(C3=CCCC3)cc2)[C@@H](CO)N1C(=O)C1CC1 | -1.9 | i | 1 | 0 | 0.1
C[C@@H]1CN([C@H](C)CO)C(=O)c2cc(NS(=O)(=O)c3ccccc3)ccc2O[C@@H]1CN(C)CC1CCCCC1 | 1.3 | i | 3 | -5 | -2.4

Additional results:
compound | MLL AF4-AF9 inh | FGF22 binding | Ecoli rRNA inh | Ecoli rRNA inh OD600 | Ecoli rRNA inh RFP
O=S(=O)(N[C@@H]1CC[C@H](CCn2cc(C3(O)CCCC3)nn2)O[C@@H]1CO)c1ccc(F)cc1 | 0.4 | i | 1 | -3 | 0.6
CCOC(=O)C(N=Nc1nn[nH]n1)C(C)=O (stereo not given) | 0.8 | . | 7 | 14 | 0.9
CN1C(=O)c2cc(NC(=O)C3CC3)ccc2OC[C@@H]2O[C@H](CC(=O)NCCc3ccncc3)CC[C@@H]21 | -12 | i | 2 | 1 | -0.9
COc1ccccc1-c1cnc2c(c1)C(=O)N([C@H](C)CO)C[C@@H](C)[C@H](CN(C)Cc1ccncc1)O2 | -1.8 | i | -2 | -8 | -1.7
C[C@H](CO)N1C[C@H](C)[C@@H](CN(C)C(=O)c2ccc3c(c2)OCO3)Oc2ncc(C#CCN(C)C)cc2C1=O | -1.1 | i | 1 | 7 | -2.1
Cc1ccc(S(=O)(=O)N(C)C[C@H]2Oc3ccc(NC(=O)Nc4ccccc4)cc3CC(=O)N([C@@H](C)CO)C[C@H]2C)cc1 | 3.8 | i | 0 | -1 | 2.7
C[C@@H]1CCCCO[C@H](CN(C)C)[C@@H](C)CN([C@H](C)CO)C(=O)c2cc(NS(C)(=O)=O)ccc2O1 | -1.3 | i | -1 | 4 | -2.4
C[C@@H]1CCCCO[C@H](CN(C)C(=O)Nc2ccc3c(c2)OCO3)[C@H](C)CN([C@H](C)CO)C(=O)c2cc(NC(=O)Nc3ccccc3)ccc2O1 | 2.3 | i | 4 | 14 | -1.0
C[C@@H]1CN([C@@H](C)CO)C(=O)Cc2cc(NC(=O)Cc3cn(C)c4ccccc34)ccc2O[C@H]1CN(C)S(C)(=O)=O | -0.5 | i | 2 | 7 | -0.8
CC(C)NC(=O)Nc1ccc2c(c1)C(=O)N([C@H](C)CO)C[C@H](C)[C@H](CN(C)C(=O)Nc1cccc3ccccc13)OCCCC[C@H](C)O2 | 0.6 | i | 5 | -12 | -0.5
Cc1noc(C)c1NC(=O)Nc1ccc2c(c1)C(=O)N([C@H](C)CO)C[C@H](C)[C@@H](CN(C)CC1CCCCC1)OCCCC[C@H](C)O2 | 0.7 | i | -2 | 0 | -4.0
CC(=O)N(C)C[C@@H]1Oc2cc(-c3cccc(F)c3)ccc2S(=O)(=O)N([C@@H](C)CO)C[C@@H]1C | -0.5 | i | -3 | 3 | -2.0
O=C(Nc1cc(F)ccc1F)N1CC(=O)N2[C@H](CO)[C@H](c3ccc(C#CC4CCCCC4)cc3)[C@@H]2C1 | 1.8 | i | 3 | -6 | 5.4
C[C@@H](NC(=O)C[C@H]1CC[C@H]2[C@@H](COC[C@H](O)CN2Cc2ccc(C(F)(F)F)cc2)O1)c1ccccc1 | -0.4 | i | -10 | -29 | 0.2
O=C(C[C@H]1CC[C@@H]2[C@H](COC[C@H](O)CN2Cc2ccc3c(c2)OCO3)O1)N1CCOCC1 | -1.6 | i | 0 | 6 | -0.1
C[C@@H]1CN([C@H](C)CO)C(=O)Cc2cc(NC(=O)Cc3cn(C)c4ccccc34)ccc2O[C@@H]1CN(C)C(=O)NC1CCCCC1 | 1.1 | i | -1 | -16 | 0.7
CC(C)NC(=O)Nc1ccc2c(c1)C(=O)N([C@@H](C)CO)C[C@H](C)[C@H](CN(C)Cc1ccc(Cl)c(Cl)c1)O2 | -0.8 | i | 4 | -3 | 1.1
O=C(C[C@H]1CC[C@H]2[C@@H](COC[C@H](O)CN2C(=O)Nc2ccc(Cl)c(Cl)c2)O1)NCc1ccccc1 | -0.9 | i | -59 | -80 | -19
C[C@@H]1CN([C@@H](C)CO)C(=O)c2cc(C3=CCCC3)cnc2O[C@H]1CN(C)C(=O)Nc1ccccc1 | 4.8 | i | 2 | 4 | 0.6
COc1ccc(NC(=O)Nc2ccc3c(c2)CC(=O)N([C@H](C)CO)C[C@@H](C)[C@H](CN(C)S(=O)(=O)c2ccc(OC)cc2)O3)cc1 | 4.6 | i | -2 | 0 | -0.1
Cc1noc(C)c1NC(=O)N(C)C[C@H]1Oc2c(cccc2N(C)C)C(=O)N([C@H](C)CO)C[C@H]1C | -2.6 | i | 0 | 4 | -1.3
Cc1ccc(-c2ccc([C@H]3[C@@H](CO)N4CCCCN(C(=O)c5ccc(F)cc5)C[C@@H]34)cc2)cc1 | 1.4 | i | -14 | -31 | 11
C[C@H](CO)N1C[C@H](C)[C@@H](CN(C)S(=O)(=O)c2ccc(F)cc2)OCc2cn(nn2)CCCC1=O | 1.0&-7.1 | i | 22&-1 | 10&1 | 1.3&0.0
CCC(=O)Nc1ccc2c(c1)OC[C@@H](C)N(C(=O)c1ccccn1)C[C@@H](C)[C@H](OC)CN(C)C2=O | 0.2 | i | 1 | 1 | 0.5
CCC(=O)N1CC2(CCN(C(=O)NC(C)C)CC2)c2c(n(C)c3cc(OC)ccc23)[C@@H]1CO | -0.2 | i | -3 | 10 | -3.1
Cc1noc(C)c1NC(=O)N(C)C[C@@H]1Oc2ccc(NC(=O)NC3CCCCC3)cc2CC(=O)N([C@H](C)CO)C[C@H]1C | -3.5 | i | 3 | 8 | -0.1
COc1ccc(NC(=O)N(C)C[C@@H]2OCCCC[C@H](C)Oc3ccc(N(C)C)cc3C(=O)N([C@@H](C)CO)C[C@@H]2C)cc1 | 11 | i | -3 | -4 | 0.1
COc1cc(CC2COC(=O)C2Cc2ccc(O)c(OC)c2)ccc1O (stereo not given) | -0.8 | i | -5 | -14 | -11
C[C@H]1CN([C@@H](C)CO)S(=O)(=O)c2ccc(C#Cc3cccc(F)c3)cc2O[C@H]1CN(C)C | 13 | i | -1 | 0 | -2.8
COc1ccc2c3c(n(C)c2c1)[C@H](CO)N(C(=O)c1ccncc1)CC31CCN(CC2CC2)CC1 | 1.9 | i | 0 | -2 | -0.1
O=C(NCC[C@H]1CC[C@@H](NS(=O)(=O)c2ccccc2F)[C@H](CO)O1)c1ccc(F)cc1 | -1.5 | i | 0 | -3 | 0.8
N#CC1(C(N)=O)OC12CCS(=O)(=O)c1ccccc12 (stereo not given) | -0.3 | i | -50 | -74 | -17
O=C(C[C@H]1CC[C@H]2[C@@H](COC[C@@H](O)CN2S(=O)(=O)c2ccccc2)O1)Nc1ccccc1 | -0.3 | i | -3 | 7 | -0.5
O=C(N[C@H]1CC[C@H](CCNS(=O)(=O)c2ccc(F)cc2)O[C@H]1CO)c1cnccn1 | -1.1 | i | 6 | -3 | 0.7
COC(=O)[C@]12CCCCC=C1N(Cc1ccccc1)C(=O)[C@H](CC(=O)NCCC(C)C)C2 | -0.7 | i | -31 | -50 | -7.1
CCN(CC)c1ccc(C(=C2C=CC(=[N+](CC)CC)C=C2)c2ccccc2)cc1 | 76* | i | -56* | -40* | -21*
OCC1OC(c2ccc(OCc3ccccc3)cc2OCc2ccccc2)C(O)C1O (stereo not given) | 0.6 | i | -62 | -80 | -21
Cn1c(=O)c2cc(NC(=O)NCCc3cccs3)ccc2n1Cc1ccccc1 | -1.8 | i | -13 | -16 | -1.1
COc1ccc(/C=C/C(=O)NC(=S)Nc2ccc(S(=O)(=O)Nc3cc(OC)ncn3)cc2)cc1 | 0.7 | i | 7 | -1 | 2.1
COc1ccc2c3c([nH]c2c1)[C@H](CO)N(C(=O)CC1CC1)CC31CCN(Cc2cccnc2)CC1 | 1.6 | i | -2 | 2 | -0.5
CC(=O)Nc1cncc(-c2cccc(S(C)(=O)=O)c2)n1 | -3.5 | i | 12 | 20 | 6.5
COCC(=O)N(C)C[C@@H]1Oc2cc(C3=CCCCC3)ccc2S(=O)(=O)N([C@H](C)CO)C[C@H]1C | -2.6 | i | -4 | -4 | -3.8
CCCN(CC(=O)Nc1ccccc1OC)C(=O)CNC(=O)c1ccc(C)s1 | 1.8 | i | -2 | -3 | 0.5
C[C@@H]1CN([C@H](C)CO)C(=O)c2cc(NS(C)(=O)=O)ccc2O[C@@H]1CN(C)Cc1ccc(C(=O)O)cc1 | -2.3 | i | 4 | 3 | 0.5
CCC(=O)Nc1ccc2c(c1)C(=O)N(C)[C@H]1CC[C@H](CC(=O)N3CCCCC3)O[C@H]1CO2 | 0.0 | i | 1 | -2 | -1.7

Screens (PubChem)

An excerpt; rates above refer to the full screens.
